PKD1 kinase inh: inhibitors of human PKD1 kinase | inhibition, %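 (about 10 µM by stock and volumes)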 | 200,000 compounds, 0.056% hits | AID 797 | PKD1 kinase fluorescence polarization assay | Q15139;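 active = inhibition of 50% or more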;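 note: controls were vehicle for no effect and a reference inhibitor for full effect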
GALR2 ag: activates the human galanin receptor 2. GALR2-expressing cells, agonist activation read-out. 140,000 compounds, 0.48% hits. activation, %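 (tested at 5 µM)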;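 active = above mean plus 3 SD of all compounds, about 5% in these data, not always enough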;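 note: 0% = vehicle buffer wells and 100% = reference agonist at full effect; tested in CHO reporter cells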
Target sequence (O43603 whole entry, looked up): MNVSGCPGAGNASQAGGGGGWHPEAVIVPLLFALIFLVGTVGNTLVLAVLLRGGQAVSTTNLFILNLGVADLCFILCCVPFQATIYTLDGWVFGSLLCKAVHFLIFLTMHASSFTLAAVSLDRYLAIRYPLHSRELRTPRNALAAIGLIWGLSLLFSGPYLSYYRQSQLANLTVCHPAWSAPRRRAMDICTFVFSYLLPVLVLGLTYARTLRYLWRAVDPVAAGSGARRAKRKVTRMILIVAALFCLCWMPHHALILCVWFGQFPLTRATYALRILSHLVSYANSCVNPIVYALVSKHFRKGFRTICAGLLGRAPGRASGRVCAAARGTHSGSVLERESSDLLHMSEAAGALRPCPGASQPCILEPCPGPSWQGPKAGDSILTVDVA
HSV replic up: HSV replication enhancement; HSV replication augmentation in cells, fold increase; maximum fold increase; 220,000 compounds, 0.005% hits;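 active = peak rise of 1.5-fold or more in the series; inconclusive = self-fluorescent or not available for retest; tested in PC3 cells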;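 note: first round at 10 µM; read as green reporter fluorescence; hits show the peak of a series up to 25 µM; 1 = signal of infected wells without compound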
INS promoter inh: TRM-6 insulin promoter activity inhibition; TRM-6 cells (human fetal islet line), insulin promoter-eGFP reporter, imaging; reporter expression induced with tamoxifen; inhibition, % at 2 µM; 130,000 compounds, 0.9% hits;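 active = inhibition above the mean plus 3 SD, with well images judged a real hit on visual review, cut at about 60% in these data, passing the limit was not always enough; inconclusive = inhibition over the cutoff but images rejected on review; inactive = inhibition not above the cutoff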
RGS16-Gao: RGS16-Galphao interaction regulator (human); O15492+P09471; bead-based flow cytometry RGS16-Galphao binding, fluorescence; actives lie on both sides; binding response (% of control), % at 10 µM; 220,000 compounds, 0.38% hits; AID 1441;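 active = below 25% or above 175%, edge rows of some plates excepted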;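 note: Galphao activated by GDP with aluminum fluoride before binding; 100% = wells without compound and 0% = beads without RGS; some results beyond the cut were filed as inactive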
Target sequence (O15492 whole entry, looked up): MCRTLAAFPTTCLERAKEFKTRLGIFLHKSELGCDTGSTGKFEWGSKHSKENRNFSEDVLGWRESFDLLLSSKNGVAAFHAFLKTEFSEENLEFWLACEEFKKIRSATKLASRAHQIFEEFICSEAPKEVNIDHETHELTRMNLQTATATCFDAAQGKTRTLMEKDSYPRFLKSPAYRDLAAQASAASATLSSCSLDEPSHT
Target sequence (P09471 whole entry, looked up): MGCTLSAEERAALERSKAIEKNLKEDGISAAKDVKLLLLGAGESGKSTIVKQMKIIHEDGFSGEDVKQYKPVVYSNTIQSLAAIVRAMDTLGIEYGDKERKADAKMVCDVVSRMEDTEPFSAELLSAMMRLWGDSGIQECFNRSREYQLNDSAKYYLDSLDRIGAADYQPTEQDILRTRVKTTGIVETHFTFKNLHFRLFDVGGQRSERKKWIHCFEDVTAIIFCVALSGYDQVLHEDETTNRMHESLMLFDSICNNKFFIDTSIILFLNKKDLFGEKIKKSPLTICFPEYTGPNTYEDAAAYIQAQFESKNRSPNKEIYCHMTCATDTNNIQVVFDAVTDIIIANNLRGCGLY
INS promoter inh cell count: second read-out of INS promoter inh, no call of its own (marks repeat the call); normalized cell count, %; measured here: cell count, toxicity; reference of the scale not given here;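 cells exposed to compound for 48 h; stained nuclei by imaging scaled within each plate; lower means fewer cells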
HSV replic up primary fold: further read-out of HSV replic up, marked with its call; fold increase; compound at 10 µM; measured here: primary screen fold increase 10 uM; tested in PC3 cells;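 GFP signal in the first replicate; 1 = infected wells without compound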
Starred values were filed as active, the others as inactive.

Results for COc1ccc(C2SCCN2S(=O)(=O)c2ccc(F)cc2)cc1OC (centres undefined) ?
PKD1 kinase inh: -12; GALR2 ag: -2.9; HSV replic up: inactive; INS promoter inh: -71; RGS16-Gao: 99; INS promoter inh cell count: 147; HSV replic up primary fold: 1.3

What do the screens show for `CCCOc1c(Br)cc(C2C3=C(CCCC3=O)N(C)C3=C2C(=O)CCC3)cc1OC`?
PKD1 kinase inh: -6; GALR2 ag: 3.8; HSV replic up: inactive; INS promoter inh: 3; RGS16-Gao: 96; INS promoter inh cell count: 97; HSV replic up primary fold: 1

What do the screens show for `CCc1ccc(N(CC)C(=O)c2ccc3c(Cl)c4c(nc3c2)CCC4)cc1`?
PKD1 kinase inh: 2; GALR2 ag: -1.0; HSV replic up: inactive; INS promoter inh: 35; RGS16-Gao: 93; INS promoter inh cell count: 138; HSV replic up primary fold: 1.1

What do the screens show for `COc1cccc(C(=O)N2CCN(C(=O)Cc3ccccc3)CC2)c1`?
PKD1 kinase inh: -8; HSV replic up: inactive; INS promoter inh: -78; RGS16-Gao: 104; INS promoter inh cell count: 95; HSV replic up primary fold: 0.94

What do the screens show for `Cc1ccc(C2C3=C(CC(C)(C)CC3=O)Nc3[nH]c(=S)[nH]c(=O)c32)cc1` (centres undefined)?
HSV replic up: inactive; RGS16-Gao: 91; HSV replic up primary fold: 0.86

Results for CCOC(=O)c1cnc(SCc2nc(N)nc(Nc3ccccc3OC)n2)nc1N ?
PKD1 kinase inh: 0; GALR2 ag: -0.4; RGS16-Gao: 124

How did O=[N+]([O-])c1cc(/C=N/N2CCN(C3c4ccccc4-c4ccccc43)CC2)ccc1Cl do in these assays?
PKD1 kinase inh: -5; GALR2 ag: -2.7; HSV replic up: inactive; INS promoter inh: 24; RGS16-Gao: 109; INS promoter inh cell count: 97; HSV replic up primary fold: 1

Results for Cc1ccc(-n2c(C)cc(C3N=C(N)Nc4nc5ccccc5n43)c2C)c(C)c1 (centres undefined) ?
PKD1 kinase inh: 1; GALR2 ag: -2.0; HSV replic up: inactive; RGS16-Gao: 104; HSV replic up primary fold: 0.91

What do the screens show for `Cc1nc(C)c(-c2ccn(C(=O)NC(C)C)n2)s1`?
HSV replic up: inactive; RGS16-Gao: 95; HSV replic up primary fold: 1.1

What do the screens show for `CCOC(=O)CSc1nc(NCc2ccco2)c2ccccc2n1`?
PKD1 kinase inh: -5; GALR2 ag: -1.3; HSV replic up: inactive; INS promoter inh: -14; RGS16-Gao: 95; INS promoter inh cell count: 127; HSV replic up primary fold: 1

3 structures out of the list, ordered by heavy-atom count, rising:
Results for COc1ccc(C2SCCN2S(=O)(=O)c2ccc(F)cc2)cc1OC (centres undefined) ?
PKD1 kinase inh: -12; GALR2 ag: -2.9; HSV replic up: inactive; INS promoter inh: -71; RGS16-Gao: 99; INS promoter inh cell count: 147; HSV replic up primary fold: 1.3

Results for Cc1ccc(-n2c(C)cc(C3N=C(N)Nc4nc5ccccc5n43)c2C)c(C)c1 (centres undefined) ?
PKD1 kinase inh: 1; GALR2 ag: -2.0; HSV replic up: inactive; RGS16-Gao: 104; HSV replic up primary fold: 0.91

Results for CCOC(=O)c1cnc(SCc2nc(N)nc(Nc3ccccc3OC)n2)nc1N ?
PKD1 kinase inh: 0; GALR2 ag: -0.4; RGS16-Gao: 124

Next section:
Results for CC(C)=CC(=O)Nc1nnc(-c2cccnc2)s1 ?
PKD1 kinase inh: -10; GALR2 ag: -1.4; HSV replic up: inactive; RGS16-Gao: 109; HSV replic up primary fold: 0.94

What do the screens show for `O=c1c2c3c(sc2nc2n1CCC2)CCCCC3`?
PKD1 kinase inh: -2; HSV replic up: inactive; RGS16-Gao: 111; HSV replic up primary fold: 1

Results for COC(=O)Cn1c(=O)c2c(n(Cc3ccccc3)c1=O)N/C(=C/c1ccc(OC)cc1)C2=O ?
HSV replic up: inactive; RGS16-Gao: 117; HSV replic up primary fold: 1.1

How did COc1cccc(C2C3=C(CC(C)(C)CC3=O)Nc3cc(OC)c(OC)cc32)c1 (centres undefined) do in these assays?
PKD1 kinase inh: -4; HSV replic up: inactive; INS promoter inh: 9; RGS16-Gao: 120; INS promoter inh cell count: 79; HSV replic up primary fold: 0.99

Results for COc1ccc(NC(=O)C=C(C)C)cc1Cl ?
PKD1 kinase inh: 8; GALR2 ag: -3.5; HSV replic up: inactive; INS promoter inh: 9; RGS16-Gao: 93; INS promoter inh cell count: 122; HSV replic up primary fold: 0.83

Results for Oc1ccc2ccc3cccc[n+]3c2c1 ?
PKD1 kinase inh: -1; GALR2 ag: -1.2; HSV replic up: inconclusive; INS promoter inh: 19; INS promoter inh cell count: 143

How did COc1cc(OC)c(C2=NOC(C(=O)N3CCc4ccccc4C3)C2)cc1Cl (centres undefined) do in these assays?
PKD1 kinase inh: -2; GALR2 ag: -2.8; HSV replic up: inactive; INS promoter inh: -3; RGS16-Gao: 93; INS promoter inh cell count: 94; HSV replic up primary fold: 1

What do the screens show for `COCCn1c(C)cc(C(=O)CSc2nc(C)cc(C)c2C#N)c1C`?
PKD1 kinase inh: -7; GALR2 ag: -1.8; HSV replic up: inactive; INS promoter inh: 9; RGS16-Gao: 101; INS promoter inh cell count: 81; HSV replic up primary fold: 1

What do the screens show for `CC/C(=C(/CC)c1ccc(O)cc1)c1ccc(O)cc1`?
PKD1 kinase inh: -2; HSV replic up: inactive; RGS16-Gao: 106; HSV replic up primary fold: 1.1

What do the screens show for `CCOC(=O)Cc1cc(C)[nH]c1C(=O)OCC`?
HSV replic up: inactive; RGS16-Gao: 99; HSV replic up primary fold: 0.99

Results for CCC(=O)c1cc2c(C)cc(=O)oc2c(C)c1OC(=O)C(C)C ?
PKD1 kinase inh: -4; GALR2 ag: -0.8; HSV replic up: inactive; INS promoter inh: 20; RGS16-Gao: 85; INS promoter inh cell count: 100; HSV replic up primary fold: 0.96

How did NC(=O)CSc1nnc(-c2ccc(O)cc2)n1Cc1ccco1 do in these assays?
PKD1 kinase inh: 3; GALR2 ag: -0.9; HSV replic up: inactive; INS promoter inh: 25; INS promoter inh cell count: 89; HSV replic up primary fold: 0.77

How did COc1ccc(OC)c(-n2c(C)nc3cc(C(=O)O)ccc32)c1 do in these assays?
PKD1 kinase inh: -11; GALR2 ag: -0.5; HSV replic up: inactive; RGS16-Gao: 98; HSV replic up primary fold: 0.91

What do the screens show for `Cc1c(CCC(C)C)c(=O)n2c([nH]c3ccccc32)c1C#N`?
PKD1 kinase inh: -1; GALR2 ag: -1.9; HSV replic up: inactive; INS promoter inh: -44; RGS16-Gao: 101; INS promoter inh cell count: 159; HSV replic up primary fold: 0.89

What do the screens show for `Cc1cc(C)n2nc(C(=O)Nc3ccc(S(=O)(=O)N(C)C)cc3)nc2n1`?
HSV replic up: inactive; RGS16-Gao: 102; HSV replic up primary fold: 0.85

What do the screens show for `CN(C)/C=C1/Oc2c(ccc3ccccc23)C1=O`?
PKD1 kinase inh: 0; HSV replic up: inactive; RGS16-Gao: 102; HSV replic up primary fold: 0.9

How did COc1ccc(-c2onc3ccc(Br)cc23)cc1 do in these assays?
PKD1 kinase inh: -7; GALR2 ag: 0.7; HSV replic up: inactive; INS promoter inh: -41; RGS16-Gao: 101; INS promoter inh cell count: 138; HSV replic up primary fold: 0.96

What do the screens show for `COC(=O)c1nc(-c2ccccc2)oc1N(C)C`?
PKD1 kinase inh: -13; GALR2 ag: -1.8; HSV replic up: inactive; INS promoter inh: 50; RGS16-Gao: 103; INS promoter inh cell count: 155; HSV replic up primary fold: 0.97

What do the screens show for `CCOC(=O)Cc1csc(NC(=S)NC(=O)c2ccc(Cl)cc2)n1`?
PKD1 kinase inh: -2; GALR2 ag: -2.8; HSV replic up: inactive; RGS16-Gao: 101; HSV replic up primary fold: 1

How did O=C(CCn1cnc2ccccc2c1=O)Nc1cccc(Cl)c1Cl do in these assays?
PKD1 kinase inh: -5; HSV replic up: inactive; RGS16-Gao: 103; HSV replic up primary fold: 0.99

What do the screens show for `CCN(c1ccccc1)S(=O)(=O)c1ccc(F)cc1`?
PKD1 kinase inh: -3; GALR2 ag: -1.8; HSV replic up: inactive; INS promoter inh: 14; RGS16-Gao: 111; INS promoter inh cell count: 122; HSV replic up primary fold: 0.99

Results for COc1cccc(C(=O)NCC(=O)N/N=C/c2cccc(OC(=O)c3ccc([N+](=O)[O-])cc3)c2)c1 ?
PKD1 kinase inh: -6; GALR2 ag: -1.5; HSV replic up: inactive; RGS16-Gao: 111; HSV replic up primary fold: 1.1

How did Cc1ccc(OCC(=O)Nc2ccccc2Sc2ccc(Cl)cc2)c([N+](=O)[O-])n1 do in these assays?
PKD1 kinase inh: -1; GALR2 ag: -0.6; HSV replic up: inconclusive; RGS16-Gao: 99

How did O=C1CC(C(=O)Nc2ccc(O)c(C(=O)O)c2)C(c2ccccc2)O1 (centres undefined) do in these assays?
PKD1 kinase inh: -3; GALR2 ag: -1.0; HSV replic up: inactive; INS promoter inh: -28; RGS16-Gao: 102; INS promoter inh cell count: 203; HSV replic up primary fold: 1.1

What do the screens show for `CN1CCN(NS(=O)(=O)c2ccc(Cl)s2)CC1`?
PKD1 kinase inh: -6; GALR2 ag: -0.7; HSV replic up: inactive; INS promoter inh: 11; RGS16-Gao: 95; INS promoter inh cell count: 104; HSV replic up primary fold: 1

What do the screens show for `O=C(NCc1cccnc1)c1ccc(COc2ccccc2Br)cc1`?
PKD1 kinase inh: -11; HSV replic up: inactive; RGS16-Gao: 100; HSV replic up primary fold: 0.79

Results for CC(C)(C)SCCNS(=O)(=O)c1ccc(F)cc1 ?
PKD1 kinase inh: -1; GALR2 ag: -2.0; HSV replic up: inactive; INS promoter inh: -44; RGS16-Gao: 105; INS promoter inh cell count: 113; HSV replic up primary fold: 0.86

Results for O=C(Nn1c(O)c(C=C2N=c3ccccc3=N2)sc1=S)c1cccc(Cl)c1 ?
PKD1 kinase inh: -2; GALR2 ag: -3.5; HSV replic up: inactive; INS promoter inh: -27; RGS16-Gao: 96; INS promoter inh cell count: 122; HSV replic up primary fold: 0.93

What do the screens show for `CCCC(=O)Nc1ccc(C(=O)NCc2ccccc2Cl)cc1`?
PKD1 kinase inh: 2; GALR2 ag: -2.4; HSV replic up: inactive; RGS16-Gao: 87; HSV replic up primary fold: 0.99

What do the screens show for `Cc1c(CN2CCCC(C)C2)c(O)n(CCO)c(=O)c1C#N` (centres undefined)?
PKD1 kinase inh: 6; HSV replic up: inactive; INS promoter inh: 19; RGS16-Gao: 92; INS promoter inh cell count: 167; HSV replic up primary fold: 0.97

How did CCC(OC(=O)c1nsc(Cl)c1Cl)C(=O)NC(C)(C)C (centres undefined) do in these assays?
PKD1 kinase inh: -5; HSV replic up: inactive; RGS16-Gao: 106; HSV replic up primary fold: 0.99

How did COc1ccccc1-c1nnc(SC2CCc3ccccc3NC2=O)s1 (centres undefined) do in these assays?
PKD1 kinase inh: 8; GALR2 ag: -0.6; HSV replic up: inactive; INS promoter inh: 15; RGS16-Gao: 101; INS promoter inh cell count: 90; HSV replic up primary fold: 0.86

Results for Cc1cccnc1NC(=O)c1c(O)c2ccccc2n(C)c1=O ?
PKD1 kinase inh: -4; GALR2 ag: -2.0; HSV replic up: inactive; INS promoter inh: 54; RGS16-Gao: 83; INS promoter inh cell count: 211; HSV replic up primary fold: 0.95

How did CCOC(=O)c1cccc(NC(=O)Nc2ccc(OCC)cc2)c1 do in these assays?
PKD1 kinase inh: -4; HSV replic up: inactive; RGS16-Gao: 104; HSV replic up primary fold: 0.94

What do the screens show for `Cc1ccc2c(=O)c(C(=O)NCc3cccs3)c[nH]c2c1`?
PKD1 kinase inh: -14; GALR2 ag: -2.0; HSV replic up: inactive; INS promoter inh: -191; RGS16-Gao: 94; INS promoter inh cell count: 89; HSV replic up primary fold: 0.83

How did COc1cc(OC)c(C2CC(=O)N3CN(c4ccc(C)cc4)CSC3=C2C#N)cc1OC (centres undefined) do in these assays?
PKD1 kinase inh: -6; GALR2 ag: -3.5; RGS16-Gao: 74

Results for CC(C)C(=O)NNC(=O)CSc1nnnn1C(C)C ?
PKD1 kinase inh: -2; HSV replic up: inactive; RGS16-Gao: 100; HSV replic up primary fold: 0.93

What do the screens show for `Cc1ccc(Cc2nnc3n(-c4cccc(C)c4)nc(C(=O)c4ccccc4)n3c2=O)cc1`?
PKD1 kinase inh: -12; GALR2 ag: -0.1; HSV replic up: inactive; INS promoter inh: -25; RGS16-Gao: 22; INS promoter inh cell count: 94; HSV replic up primary fold: 0.99

How did C/C(=N\Nc1cccc([N+](=O)[O-])c1)c1cc2ccccc2o1 do in these assays?
PKD1 kinase inh: -1; HSV replic up: inactive; INS promoter inh: 29; RGS16-Gao: 109; INS promoter inh cell count: 197; HSV replic up primary fold: 0.8

Source: PubChem BioAssay
